# WNV NS2B-NS3 inh = inhibitors of West Nile virus NS2B-NS3 protease | P06935 | WNV NS2B-NS3 protease, fluorogenic substrate Ex360/Em465; active compounds read low | z-score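 (tested at a level between 10 and 100 µM)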 | 65,000 tested, 0.18% active | AID 577;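 active = z-score at -3 or under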;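 note: score is relative to mean and spread of the compound wells of a plate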
# Target sequence (P06935 1371-1501 limits assumed): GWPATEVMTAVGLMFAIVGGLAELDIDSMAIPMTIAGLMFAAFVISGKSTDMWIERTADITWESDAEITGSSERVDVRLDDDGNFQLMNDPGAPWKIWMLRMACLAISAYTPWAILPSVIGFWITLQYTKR
# Target sequence (P06935 1502-1679 limits assumed): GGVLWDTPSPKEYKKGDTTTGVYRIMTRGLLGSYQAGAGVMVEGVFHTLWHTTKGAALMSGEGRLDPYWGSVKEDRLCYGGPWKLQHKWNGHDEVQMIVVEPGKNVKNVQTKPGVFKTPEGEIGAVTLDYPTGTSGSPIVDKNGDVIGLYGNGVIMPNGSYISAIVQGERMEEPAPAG
# MT1-MMP reporter = MT1-MMP gene expression reporter suppression – cell-based, luciferase reporter, luminescence (AID 618) | calls from a first round at 10 µM; hits with a dose series show EC50 in µM | 87,000 tested, 0.62% active | MT1-MMP promoter luciferase reporter cells, luminescence;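 active = over half of the reporter light lost at 10 µM or EC50 under 50 µM; inactive = the rest and hits that failed the dose series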;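 note: actives suppress MT1-MMP promoter-driven transcription so potencies describe inhibitors; HT1080 fibrosarcoma cells; overnight exposure; toxic or luciferase-blocking compounds were not removed from the actives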
# Hsc70 = small molecules displacing fluorescent ligand from Hsc70 – biochemical, fluorescence polarization, primary screen (AID 568); displacement, % at 20 µM, or IC50 in µM where a hit was titrated; 83,000 tested, under 10 active; Hsc70 fluorescence polarization, probe displacement; higher % means a stronger effect; strong numbers were not always called active;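 active = displacement above 50% without optical interference and an IC50 on retest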;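 note: ATPase domain with a fluorescein-tagged ATP probe; 0% = vehicle and 100% = excess ADP; read after one hour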
# An asterisk follows results filed as active; i = inactive; . = no result given. The list is partial; count on the stated rates, not on these rows.
SMILES,WNV NS2B-NS3 inh,MT1-MMP reporter,Hsc70
COC(=O)C1(CCSC)NC(c2ccco2)C2C(=O)N(C)C(=O)C21 (stereo unspecified),-0.04,i,-2.4%
CC(C)(C)N1CC(COc2ccccc2)OC1=O (stereo unspecified),0.72,i,1.5%
CC(c1ccccc1)n1cc(C(=O)NCc2ccncc2)nn1 (stereo unspecified),-1.18,i,0.3%
Nc1nonc1-c1noc(-c2ccccc2)n1,0.4,i,0.8%
O=C(c1cccc(Br)c1)N1CCN(C(=O)c2cccc(Br)c2)CC1,.,i,3.7%
O=C1c2ccccc2C(=O)N1CCOc1ccccc1,.,i,-2.6%
O=C(CCn1c(=O)oc2ccccc21)NCCCN1CCCC1=O,-0.6,i,2.3%
CCOc1ccc(C2C(C#N)=C(N)Oc3nc[nH]c(=O)c32)cc1OC (stereo unspecified),0.46,i,-6.3%
Cn1c(=O)cc(OCCCC(=O)NCc2ccccn2)c2ccccc21,0.66,i,2.9%
CCOC(=O)c1sc2ccc(S(=O)(=O)N3CC(C)CC(C)C3)cc2c1N (stereo unspecified),.,i,4.3%
COC(=O)CCC(=O)c1oc2ccc(OC)cc2c1N,.,i,-4.2%
Cc1nc2sc(C(c3ccc(Cl)cc3)N3CCN(c4ccccc4F)CC3)c(O)n2n1 (stereo unspecified),1.79,i,-2.1%
Cn1c(Cn2nnc3ccccc32)nnc1SCC(=O)c1ccccc1F,.,i,4.2%
CCCCCc1cc(O)c2c(C)cc(=O)oc2c1,-0.5,i,0.6%
Cc1ccnc(NS(=O)(=O)c2ccc(NC(=O)C3CCCO3)cc2)n1 (stereo unspecified),-0.52,i,-0.8%
CCc1nc(NCC2CCCO2)c(C#N)c2c1COC(C)(C)C2 (stereo unspecified),0.83,i,-3.0%
CCCn1c2c(c(O)c(C(=O)Nc3nc(C)cs3)c1=O)CCCC2,-0.28,i,0.6%
C1CCc2c(nnc3c2-c2nonc2CC3)C1,1.06,i,-1.2%
CCCCCN(C(=O)NC(=O)Nc1nncs1)S(C)(=O)=O,2.31,i,-2.3%
CCCC(C)C(=O)Nc1nnc(C)s1 (stereo unspecified),-0.82,i,0.1%
COc1ccc(-c2csc(NCc3ccco3)n2)cc1,2.86,i,-3.1%
CCN(CC)CCNC(=O)C1CCN(S(=O)(=O)N2CCCCC2)CC1,-0.39,i,-4.6%
CCCCC(=O)N(CCOC)c1nnc(-c2ccc(OC)cc2)s1,0.87,i,0.5%
CCOc1ccc(NC(=O)N(CCN(C)C)C(C)c2ccncc2)cc1 (stereo unspecified),-1.01,i,0.5%
CS(=O)(=O)c1ccc2nc(NC(NC(=O)c3ccco3)(C(F)(F)F)C(F)(F)F)sc2c1,1.79,i,2.2%
COc1ccccc1OCCC(=O)OCC(=O)NC(=O)NC(C)(C)C,-1.29,i,-4.7%
COc1ccc(-c2nnnn2C)cc1S(=O)(=O)NCCc1ccccc1,-0.2,i,-6.1%
CCCOc1nc(N)c(C#N)c(-c2ccccc2F)c1C#N,-1.03,i,-3.8%
Cc1[nH]c2ccccc2c1CCO,1.19,i,-3.3%
OC(c1ccc(Cl)cc1)c1nnc(-c2ccccc2)o1 (stereo unspecified),-0.01,i,0.4%
CCCc1noc2c1/C(=N\O)CC(c1ccccc1)C2 (stereo unspecified),.,i,-0.2%
COc1cc(NC(=O)C2CCCN(S(=O)(=O)c3cccc4nsnc34)C2)cc(OC)c1 (stereo unspecified),-0.51,i,2.6%
Cc1ccc2cc(C#N)c(NCCCNC(=O)C3CCCO3)nc2c1 (stereo unspecified),0.87,i,5.5%
COc1ccc(S(=O)(=O)N2CCCN(S(=O)(=O)c3ccc(OC)c(C)c3)CC2)cc1C,.,i,-3.5%
O=Cc1cccn1Cc1ccc(Cl)cc1Cl,.,i,2.5%
Oc1ccc(Br)cc1CN1CCCCCCC1,-0.62,i,1.8%
COc1ccc(Cl)cc1S(=O)(=O)NCc1cccnc1,.,i,0.6%
COc1ccc(-c2cc3nc4n(c(=O)c3s2)CCOC4)cc1,0.12,i,-1.6%
Cc1cc(C)c(C#N)c(OCC(=O)c2ccccc2)n1,-0.51,i,5.7%
CCCC(C(=O)NC1CCCCC1)N(CC1CCCO1)C(=O)CNS(=O)(=O)c1ccc(F)cc1 (stereo unspecified),-0.74,i,-3.7%
CCN(CC)C(=O)C1=C(C)NC(=O)NC1c1ccccc1F (stereo unspecified),-1.37,i,1.0%
CC(C)CCn1c(NCCc2ccccc2)nc2c1c(=O)n(C)c(=O)n2C,1.32,i,1.8%
Cc1cccc2cc(CN(Cc3nnnn3Cc3ccco3)C3CCCC3)c3nnnn3c12,0.44,i,4.7%
CN(Cc1ccccc1)S(=O)(=O)c1ccc2c(c1)n(C)c(=O)n2C,0.41,i,-4.4%
COc1ccc(NC(=O)c2ccc(-n3nc(C)cc3C)cc2)cc1OC,.,i,-4.9%

# Some of the entries above, set out differently:
# Screens in order: WNV NS2B-NS3 inh, MT1-MMP reporter, Hsc70
CCCC(C(=O)NC1CCCCC1)N(CC1CCCO1)C(=O)CNS(=O)(=O)c1ccc(F)cc1 (stereo unspecified)
→ -0.74, i, -3.7%
CCN(CC)C(=O)C1=C(C)NC(=O)NC1c1ccccc1F (stereo unspecified)
→ -1.37, i, 1.0%
CC(C)CCn1c(NCCc2ccccc2)nc2c1c(=O)n(C)c(=O)n2C
→ 1.32, i, 1.8%

# Next entries:
SMILES,WNV NS2B-NS3 inh,MT1-MMP reporter,Hsc70
CCN(c1ccccc1)S(=O)(=O)c1ccc(N)cc1,-0.01,i,-0.8%
Cc1cnc(C(=O)OCC(=O)NCc2ccccc2)cn1,.,i,0.2%
CCOc1ccc2sc(NS(=O)(=O)c3ccc(OC)c(OC)c3)nc2c1,0.36,i,-6.4%
COc1ccc(-c2cc(C(F)F)n3ncc(C(=O)NCCCN4CCCC4=O)c3n2)cc1,-0.32,i,-1.8%
C=CCOc1ccc(CNc2nccs2)cc1OCC,.,i,1.5%
CC1(C)CC(OC(=O)c2ccccc2)CC(C)(C)N1,.,i,3.7%
COc1ccc(-c2nc(C)ncc2-c2csc(C)n2)c(O)c1,.,i,2.5%
COc1ccc(CNC(=O)c2cnc(C)cn2)c(OC)c1,0.49,i,-1.6%
O=C(NCc1ccc2c(c1)OCO2)c1cnc2ccccn2c1=O,-0.74,i,-0.7%
O=S(=O)(NC1c2cccc3cccc(c23)C1N1CCN(CCO)CC1)c1ccccc1 (stereo unspecified),-0.75,i,3.6%
CCOC(=O)C(C)Sc1nc(-c2cccs2)ccc1C#N (stereo unspecified),-0.18,i,-17.5%
CCNC(=O)COC(=O)c1cc(=O)[nH]c2ccccc12,.,i,0.6%
CCOC(=O)N1CCC(Nc2cc(C)nc3c(-c4ccccc4OC)c(C)nn23)CC1,-0.83,i,-0.3%
O=C(c1ccc2c(c1)OCO2)N1CCN=C1SCc1ccccc1,0.29,i,-3.2%
O=C(CCN1C(=O)c2ccccc2C1=O)Nc1cccc(F)c1,.,i,2.5%
CCOC(=O)CSC1=C(C#N)C(c2ccccc2OCC)C(C(=O)OCC)C(=O)N1 (stereo unspecified),-0.57,i,-2.7%
C=C(C)Cn1c(COc2ccccc2)nnc1SCC(=O)O,0.39,i,-3.3%
CCSc1ccccc1C(=O)NCCCn1ccnc1,-0.94,i,6.6%
O=C(NCCNC(=O)C(c1ccccc1)c1ccccc1)c1ccco1,0.07,i,-0.2%
N#CC1=C(N)SC(N)=C(C#N)C1c1ccc(C(F)(F)F)cc1,0.14,i,-7.3%
COc1ccc(N2CCN(C(=O)CCS(=O)(=O)c3cccc4nsnc34)CC2)cc1,-1.45,i,-7.5%
CN(CCCCCCCCC(=O)/C=N/O)Cc1ccccc1,.,i,-9.3%
Cn1c(=O)c2c(nc(Cl)n2Cc2ccncc2)n(C)c1=O,-1.86,i,2.2%
COc1ccccc1C(=O)N1CCN=C1c1ccccc1,-0.88,i,34.0%
Cc1nc(SCC(=O)c2c[nH]c3ccccc23)n[nH]1,-0.46,i,-4.8%
COC(=O)c1ccc(CSc2nnc(-c3ccncc3)o2)o1,0.34,i,-1.3%
CCCS(=O)(=O)N1CCC(C(=O)NCCCOCC)CC1,-0.46,i,1.2%
Cc1ccc2nc(C3CCN(CC(=O)Nc4ccc5c(c4)OCCO5)CC3)[nH]c2c1,-1.11,i,5.0%
Cc1cc2nnc(SCC(=O)NCc3cccs3)n2c2ccccc12,.,i,3.4%
O=C(O)c1ccc2c(c1)CC(c1ccccc1)OC2=O (stereo unspecified),0.26,i,-2.9%
N#C/C(=N\Nc1ccc(Cl)cc1)C(=N)N1CCCCC1,.,i,-3.4%
CCn1c(SCc2nc(CC(=O)Nc3ccccc3OC)no2)nnc1-c1cccs1,0.41,i,-2.5%
CCOC(=O)C1=C(c2ccccc2)N(C)C(=O)NC1c1ccc(O)c(OC)c1 (stereo unspecified),0.28,i,1.6%
O=C(COC(=O)C1CCCN1C(=O)c1cccs1)c1ccccc1 (stereo unspecified),0.13,i,0.9%
CCc1nnc(NC(=O)CSc2nnc(-c3c[nH]c4ccccc34)n2CC)s1,0.13,i,1.2%
CCOC(=O)C1=C(C)NC(C)=C(C(=O)OCC)C1c1ccc(O)cc1,-1.17,i,-3.1%
COc1cc(C(=S)N2CCC(C(N)=O)CC2)ccc1O,-0.52,i,-0.2%
CCOC(=O)Cc1csc(NC(=O)Nc2ccccc2)n1,-0.42,i,4.7%
COc1ccc(S(=O)(=O)N(CCCN2CCCC2=O)Cc2cc3c(C)ccc(C)c3[nH]c2=O)cc1,-0.01,i,1.5%
CCN(CC(=O)NC(C)C)C(=O)CCNC(=O)c1ccc(Cl)cc1,-3.81*,i,-1.4%
Cc1nc2sc(C(c3cccs3)N3CCN(c4cccc(Cl)c4)CC3)c(O)n2n1 (stereo unspecified),0.92,i,-2.4%
O=C(Nc1ccccc1O)c1ccc(Cl)cc1,-0.37,i,-5.3%
CCN1C(=O)/C(=C2/SC(C)=C(C)N2CC)SC1=S,1.57,i,-2.0%
Cc1ccc(S(=O)(=O)N(CC(=O)NCc2ccco2)Cc2ccccc2F)cc1,-0.35,i,-6.6%
NS(=O)(=O)c1ccc(CCNC(=O)NC2(C(F)(F)F)Oc3ccccc3O2)cc1,.,i,-4.0%
COc1ccc(-n2nc3c(c2NC(=O)c2cc4ccccc4oc2=O)CS(=O)(=O)C3)cc1,-1.79,i,-0.3%
O=C(Cn1c(=O)n(CC2CCCO2)c(=O)c2ccccc21)c1ccccc1 (stereo unspecified),0.11,i,-0.2%
Cc1ccc(-c2nn(-c3ccccc3)cc2CN(Cc2ccccc2)C(=O)CCC(=O)O)o1,0.19,i,-0.6%
CCN(CC)S(=O)(=O)c1ccc(NC(=O)C(OC)c2ccccc2)cc1 (stereo unspecified),0.67,i,1.0%
Cc1cccc(NC(=O)c2ccccc2NC(=O)C(C)(C)C)n1,1.25,i,2.9%
O=C(Cc1ccccc1)Nc1ccccc1N1CCOCC1,.,i,-0.3%
CC(=O)N1CCN(CC(O)COc2ccc(OCc3ccccc3)cc2)CC1 (stereo unspecified),0.37,i,4.8%
FC(F)(F)C1=CC(c2ccc(Cl)cc2)=NCCN1,.,i,-2.4%
COCCCn1c2nc3ccccc3nc2c2c(=O)n(Cc3ccc(Cl)cc3)cnc21,1.01,i,2.2%
Cc1c(NC(=O)CSc2nc(-c3ccco3)cc(C(F)(F)F)n2)c(=O)n(-c2ccccc2)n1C,0.41,i,0.5%
CCc1ccc2[nH]cc(C(=O)OCCOC)c(=O)c2c1,0.8,i,1.7%
CC(C)Cn1c(N)c(S(=O)(=O)c2cccs2)c2nc3ccccc3nc21,-1.58,i,-9.3%
Cc1ccc(C)c(C(C)NC(=O)C2C3CCC(O3)C2C(=O)O)c1 (stereo unspecified),-0.64,i,0.5%
Cc1onc(-c2ccccc2)c1C(=O)N1CCN(C/C=C/c2ccccc2)CC1,-0.33,i,-1.2%
CCOC(=O)c1oc2ccccc2c1NC(=O)c1cccc(OC)c1OC,-0.42,i,4.2%
# Next part:
SMILES,WNV NS2B-NS3 inh,MT1-MMP reporter,Hsc70
O=S(=O)(c1ccc(OCC(O)CN2CCc3ccccc3C2)cc1)N1CCOCC1 (stereo unspecified),-0.57,i,-2.1%
Cc1ccc(-c2cnc(N)n2C)cc1C,-0.84,i,-5.9%
COCCSc1ccccc1C(=O)NCc1ccc2c(c1)OCO2,.,i,0.7%
COc1ccc(-c2noc(CCCC(=O)NCCc3ccccc3)n2)cc1OC,-1.2,i,-4.1%

# Gathered by group: those above with an aryl thioether with sulfur outside any ring.
SMILES,WNV NS2B-NS3 inh,MT1-MMP reporter,Hsc70
Cn1c(Cn2nnc3ccccc32)nnc1SCC(=O)c1ccccc1F,.,i,4.2%
CCOC(=O)C(C)Sc1nc(-c2cccs2)ccc1C#N (stereo unspecified),-0.18,i,-17.5%
C=C(C)Cn1c(COc2ccccc2)nnc1SCC(=O)O,0.39,i,-3.3%
CCSc1ccccc1C(=O)NCCCn1ccnc1,-0.94,i,6.6%
Cc1nc(SCC(=O)c2c[nH]c3ccccc23)n[nH]1,-0.46,i,-4.8%
COC(=O)c1ccc(CSc2nnc(-c3ccncc3)o2)o1,0.34,i,-1.3%
Cc1cc2nnc(SCC(=O)NCc3cccs3)n2c2ccccc12,.,i,3.4%
CCn1c(SCc2nc(CC(=O)Nc3ccccc3OC)no2)nnc1-c1cccs1,0.41,i,-2.5%
CCc1nnc(NC(=O)CSc2nnc(-c3c[nH]c4ccccc34)n2CC)s1,0.13,i,1.2%
Cc1c(NC(=O)CSc2nc(-c3ccco3)cc(C(F)(F)F)n2)c(=O)n(-c2ccccc2)n1C,0.41,i,0.5%
COCCSc1ccccc1C(=O)NCc1ccc2c(c1)OCO2,.,i,0.7%
